From PubChem BioAssay
HSD17B inhib – qHTS Assay for Inhibitors of HSD17B4, hydroxysteroid (17-beta) dehydrogenase 4; 3-hydroxyacyl-CoA dehydrogenase type-2 (Homo sapiens), Q99714; 75,000 compounds, 7.6% hits; recombinant HSD17B10, NADH fluorescence kinetic; many of its hits are not listed in these tables; Potency, µM (highest dose often 57.1 µM), inactives show top-dose activity change, negative = inhibition, most hits filed as inhibitors; active = well fitted inhibition curve with a large enough effect; inconclusive = small, poorly fitted or top-dose-only effect; inactive = no such curve, though single readings can be large or run the other way;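 also: the protocol describes HADH2 (HSD17B10) and not the HSD17B4 of the title; nearly all actives have a fitted effect of over 70% in size; most hits overshoot -100% by far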
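His-tagged E. coli-expressed HADH2 at 20 nM in 100 mM Tris-HCl pH 9.0 with 0.01 % Tween-20, preincubated 15 min with compound at room temperature. Reaction with 1 mM NAD+ and 90 uM beta-hydroxybutyryl coenzyme A; NADH fluorescence (360/450 nm) read kinetically over 4 min, last minus first point.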
* hit, by the source's call; ? = inconclusive; [ ] = another dose, or the depositor's remark. % is scaled to controls: 0 for no effect and ±100 for the full control effect; potency is read from the fitted curve at half-maximal effect.

SMILES | HSD17B inhib
O=C(CCc1ccccc1)Nc1nc2n(n1)C(c1ccccc1)CC(=O)N2 (stereo not drawn) | -2%
COc1ccc(C/C(N)=N/n2cnnc2)cc1Cl | 4%
CC1(C)CC(CCC(=O)Nc2ccc(S(N)(=O)=O)cc2)C(=O)O1 (stereo not drawn) | 8%
NC(=O)c1ccc(-n2nnnc2Oc2ccccc2)cc1 | -3%
COc1cc(CO)cc(Br)c1OCC(=O)N1CCCCC1 | 8%
Cc1ccc(NC(=O)c2noc3c2CCCCC3)cc1C | 15%
O=C(Cn1cnc2ccccc2c1=O)NCCC(=O)Nc1ccc2c(c1)OCCO2 | 6%
CCOc1ccccc1NC(=O)Cn1c(C)cc(COC)c(C#N)c1=O | 32µM*
Cc1c(NC(=O)C2CC(c3c(F)cccc3Cl)=NO2)c(=O)n(-c2ccccc2)n1C (stereo not drawn) | 8%
O=C(O)COc1ccc(-c2nnn(CC(=O)O)n2)cc1 | 6%
CCOCCn1c(N(C)Cc2ccccc2)nc2c1c(=O)[nH]c(=O)n2C | 2%
O=C(CSCc1ccccc1)NC1CCSC1=O (stereo not drawn) | -11%
COc1cccc(C2CC(c3ccccc3Cl)Nc3ncnn32)c1 (stereo not drawn) | 1%
O=C(NCCO)c1ccc2[nH]c3c(c2c1)CCCC3 | -4%
Cc1ccc(-c2cc(C(F)F)n3ncc(C(=O)N4CCN5CCCC5C4)c3n2)cc1 (stereo not drawn) | 25µM*
CCOC(=O)C1=C(C)Nc2nc(C)nn2C1c1ccc(OC)c(OC)c1 (stereo not drawn) | 11%
CCN1CCN(C(=O)C2CCN(Cc3nc(-c4ccc(Cl)cc4)oc3C)CC2)CC1 | 14%
CC(=O)OC[C@@H]1O[C@H](C/C=N\OC[C@@H](C)[C@H](OCc2ccccc2)C(C)C)C=C[C@@H]1OC(C)=O | 3%[11.4 µM]
CCOC(=O)c1ccc(S(=O)(=O)N2CCN(CC(=O)NC(=O)NC3CCCCC3)CC2)cc1 | 0%
CSc1ccccc1NC(=O)C1CCCO1 (stereo not drawn) | -8%
COc1ccc(-n2c(COc3ccc(C)cc3)nnc2SCC(N)=O)cc1 | -11%
CCn1cc(C(=O)NCc2ccc(OC)cc2OC)c(=O)c2ccc(C)nc21 | 4%
CCCn1c2c(c(O)c(C(=O)NC)c1=O)CCCC2 | -12%
O=C(NCc1ccco1)c1ccc2snnc2c1 | -5%
C=CCSc1nnc(-c2c[nH]c3ccccc23)n1CCOC | 1%
CCC(C)N1C(=O)c2ccccc2C1C(=O)NC1CCCCCC1 (stereo not drawn) | 2%
Cc1cnc(C(=O)Nc2ccccc2-c2nnn(CC(=O)NC3CCCC3)n2)cn1 | -6%
COc1c(Br)cc2c(C)c(C(=O)N3CCOCC3)oc2c1Br | -4%
Nc1cc([N+](=O)[O-])ccc1O | -4%
O=C1[C@H]2O[C@@H]2[C@@H](O)[C@H]2[C@H]1CCn1c(=O)n(Cc3cc4c(cc3Cl)OCO4)c(=O)n12 | 4%[11.4 µM]

Two compounds picked at random from the list so far, as already listed:
SMILES | HSD17B inhib
CCCn1c2c(c(O)c(C(=O)NC)c1=O)CCCC2 | -12%
CCOC(=O)c1ccc(S(=O)(=O)N2CCN(CC(=O)NC(=O)NC3CCCCC3)CC2)cc1 | 0%

Continuation:
SMILES | HSD17B inhib
CCc1nnc(NC(=O)CSc2nnc(CCc3nc4ccccc4[nH]3)n2C)s1 | 2%
COc1ccc(C)cc1NC(=O)CCC(=O)Nc1ccc2nc(N3CCN(C)CC3)cc(C)c2c1 | 16µM*
FC(F)(F)c1cccc(NCc2cn3cccnc3n2)c1 | 2%
Cc1ccc(C(=O)Nc2ccccc2C(N)=O)o1 | 8%
CCOC(=O)CSCC(=O)Nc1cc(C)ccc1C | -9%
Cc1nc2cnc(N3CCNCC3)nc2n(C2CC2)c1=O | 32µM*
Nc1ncnc2c1nc(-c1ccccc1)n2[C@H]1O[C@@H](CO)[C@@H](O)[C@H]1O | ?
O=C(c1ccccc1F)N1CCC(O)(c2cccnc2)CC1 | -2%
C[C@@H](CCCCC(=O)Nc1ccc(C(F)(F)F)cc1)NCCc1cnc[nH]1 | -12%
CCN(CCCNS(=O)(=O)c1ccc2c(c1)CCN2C(C)=O)c1cccc(C)c1 | 4%
CCCC(=O)n1nc(-c2ccc(Cl)cc2)nc1SC | -3%
COc1ccc(C(c2nnnn2C(C)(C)C)N2CCN(c3nc4ccccc4s3)CC2)cc1OC (stereo not drawn) | 6%
COc1ccc(Cl)cc1Nc1nc(N2CCCC2)nc(N2CCCC2)n1 | -5%
O=C1N(CCCN2C(=O)C3(OCCO3)c3ccccc32)c2ccccc2C12OCCO2 | 3%
Cc1cccc(C(=O)c2ccccc2C(=O)O)c1O | 5%
O=C(O)CCCC(=O)Nc1ccc(C(=O)N2CCCCC2)c(Cl)c1 | 4%
O=C(Cn1c(=O)oc2cc(S(=O)(=O)N3CCCCCC3)ccc21)NC1CCCCC1 | 0%
O=C1CCCC=C1[C@H](CCc1ccccc1)OC(=O)c1ccc(Br)cc1 | 0%[11.4 µM]
Cc1n[nH]c(C)c1S(=O)(=O)N(CC(=O)NC1CCCC1)c1ccc(C(C)C)cc1 | 1%
CCc1nnc(NC(=O)CN2CCN(c3ccccc3OC)CC2)s1 | -2%
CCOc1ccc(N=NS(=O)(=O)O)cc1 | -5%[11.4 µM]
Cc1nnc(NC(=O)CSc2nnnn2Cc2ccccc2)s1 | 0%
O=S(=O)(O)CCCc1cccc2ccccc12 | 10%[11.4 µM]
CCOC(=O)N1CCN(C(=O)CSc2nnc(CNC(=O)c3ccccc3F)o2)CC1 | 5%
CN(CCCNC(=O)COc1cc(=O)n(C)c2ccccc12)Cc1ccccc1 | 6%
COC(=O)[C@H]1C[C@@H]1[C@H](N)c1ccccc1 | -8%
COc1ccc2nc(SCC(N)=O)cc(C)c2c1 | -22%
Cc1cc2c(=O)n(Cc3ccco3)c(SCC(=O)N3CCCc4ccccc43)nc2s1 | -9%
CCCCC1CCC(C(=O)NC2CCS(=O)(=O)C2)CC1 (stereo not drawn) | -4%
O=C(Nc1cccc(F)c1)N1CC=C(n2c(=O)[nH]c3ccccc32)CC1 | -3%

Given as labelled records: four of the compounds above
CCCCC1CCC(C(=O)NC2CCS(=O)(=O)C2)CC1 (stereo not drawn)
  HSD17B inhib: -4%
CCOC(=O)N1CCN(C(=O)CSc2nnc(CNC(=O)c3ccccc3F)o2)CC1
  HSD17B inhib: 5%
Cc1nnc(NC(=O)CSc2nnnn2Cc2ccccc2)s1
  HSD17B inhib: 0%
COc1ccc2nc(SCC(N)=O)cc(C)c2c1
  HSD17B inhib: -22%

The results go on.
SMILES | HSD17B inhib
C=CCn1sc(=N)c(C#N)c1N | -26%
Cc1sc2ncnc(Sc3nnnn3-c3ccccc3)c2c1C | 32µM*
CCn1nnc(NC(=O)c2cc(Cl)c(OC)c(Cl)c2)n1 | 7%
c1ccc2c3c(cc(N4CCOCC4)c2c1)OC1(N2CCOCC2)CCCCC1O3 (stereo not drawn) | 32µM*
CCOC(=O)c1ccc(N2C(=O)CC(N3CCOCC3)C2=O)cc1 (stereo not drawn) | 3%
CCOc1ccc(NC(=O)CC2NCCNC2=O)cc1 (stereo not drawn) | -1%
CC(=O)Nc1ccn(Cc2c(F)cccc2Cl)n1 | 5%
COc1ccc2c(CC(=O)N(C)CC3COc4ccccc4O3)coc2c1 (stereo not drawn) | -1%
C=CCc1cccc(CNc2nc3ccccc3n2CCN2CCOCC2)c1O | 6%
Cn1c(SCc2cccc(F)c2)nnc1-c1ccccn1 | 0%
O=C(O)c1cc(-c2ccncc2)nc2ccc(S(=O)(=O)N3CCOCC3)cc12 | -3%
COc1ccc2ccccc2c1/C=C\C(=O)c1ccccc1 | -2%[11.4 µM]
CCOC(=O)N1CCN(c2c(-c3ccccc3)c3cc(Cl)ccc3[nH]c2=O)CC1 | -3%
Cc1cc(N2CCN(C)CC2)n2nc(-c3ccc(Cl)cc3)nc2n1 | 3%[11.4 µM]
COc1cccc(CSc2nnc(-c3ccco3)n2C)c1 | -3%
CCC(C)(C)n1nnnc1C(c1cc2cc(C)ccc2[nH]c1=O)N1CCCC1 (stereo not drawn) | ?
CC(=O)c1ccc(NC(=O)c2ccc(S(=O)(=O)N3CCCC3)cc2)cc1 | 6%
Cc1c[n+]([O-])n(-c2ccc(C(=O)O)cc2)n1 | 9%
CCOC(=O)C1=C(C)NC(=O)NC1c1ccc(F)cc1 (stereo not drawn) | 10%
CC1CCCCC1NC(=O)Cn1cnc2ccccc2c1=O (stereo not drawn) | 7%
Cc1ccc(S(=O)(=O)CCSc2nc(C)cc(C)c2C#N)cc1 | -1%
COc1ccc(CCC(=O)Nc2ccc(Br)cn2)cc1 | -14%
CO[C@H]1COC(=O)C/C=C\[C@H](C)[C@H](OC)COC(=O)[C@@H](C)NC(=O)C/C=C\[C@@H]1C | 4%[11.4 µM]
Cc1ccc(-n2c(N)c(C(=O)N3CCN(C)CC3)sc2=S)cc1 | -23%
COc1ccc(N2CCN(CCNC(=O)c3nnc(Cc4c(F)cccc4Cl)o3)CC2)cc1 | 2%
CCC/C=C(\CCC)C(NC(=O)c1ccc(C(F)(F)F)cc1)c1ccccc1 (stereo not drawn) | -4%
CCOc1cccc(C(=O)c2ccc(O)c(O)c2O)c1 | 16µM*
Cc1ccc(-c2ccc(CCC(=O)O)n2Cc2ccco2)cc1 | ?
CC1CCN(C(=O)Cn2c(=O)oc3ccccc32)CC1 | -1%
N=C(N)SCc1nc(-c2ccc(Cl)cc2)no1 | 0%[11.4 µM]
O=C(NCc1nc2ccccc2[nH]1)c1ccc(S(=O)(=O)N2CCOCC2)cc1 | 0%
CS(=O)(=O)N(CC(=O)O)c1ccccc1 | 3%
Cc1cc(C)n(C(=O)COc2c(C)cccc2C)n1 | 32µM*
O=C(O)c1ccc(CNc2ccccc2C(=O)O)cc1 | 32µM*
CN(Cc1nc(-c2ccncc2)no1)S(=O)(=O)c1ccc(Cl)cc1 | 5%
CCOC(=O)c1[nH]c(C)c(C(=O)Nc2ccc3c(c2)CCC3)c1C | 8%
CC(=O)O[C@H]1C2=C(C(=O)[C@H]3O[C@@H]31)[C@@H]1[C@@H]3[C@@H](C)OC=C4[C@H](O)[C@H]5O[C@@H]5C(=O)[C@]43C2O[C@H]1C | 2%[11.4 µM]
O=C(C1CCCCC1)N1CCN(c2ncccn2)CC1 | 2%
O=C(COc1ccc(Cl)cc1)NCc1nnc(SCC(=O)Nc2ccccc2)o1 | 6%
O=C(CCN1CCN(CC(=O)Nc2ccccc2Cl)CC1)Nc1ccccc1F | 11%
CN(Cc1cc2ccccc2[nH]c1=O)S(=O)(=O)c1ccccc1 | -24%
N#Cc1nc(-c2ccc(OCc3ccc(Cl)cc3)cc2)oc1NCc1cccnc1 | -16%
CCCC(=O)Nc1nnc(CC(=O)OCC)s1 | 16%
CC1(O)C(=O)C=C2C=C3CCCN3C=C2C1=O (stereo not drawn) | -13%[11.4 µM]
Cc1ccc(-c2noc(-c3ccccc3Br)n2)cc1 | -2%
CSCCC1NC(=O)NC1=O (stereo not drawn) | 3%
CCOC(=O)c1ccc(NS(=O)(=O)c2ccc3c(c2)oc(=O)n3C)cc1 | -3%
Cc1c(NC(=O)C23CC4CC(CC(C)(C4)C2)C3)c(=O)n(-c2ccccc2)n1C | 4%
Cc1noc(C)c1COc1cccc(C(=O)N2CCN(C/C=C/c3ccccc3)CC2)c1 | -5%
Cc1cc2ccccc2n2c(SCC(=O)N3CCN(C(=O)c4ccco4)CC3)nnc12 | 2%
O=C(Cn1cc(C(=O)c2cccs2)c2ccccc21)NCC1CCCO1 (stereo not drawn) | -1%
COc1ccc(C2c3c(oc4ccc(Cl)cc4c3=O)C(=O)N2Cc2ccco2)cc1OC (stereo not drawn) | 11%
C=CCn1c(NCc2ccccc2)nc2ccccc21 | 8%
CCOC(=O)C1CCN(C(=O)Cn2cc(C(=O)C3CC3)c3ccccc32)CC1 | 15%
Cc1cc(OCC(=O)O)c(Cl)cc1Cl | 2%[11.4 µM]
COC(=O)c1cn(NC(=O)C2CCCO2)c(=O)c2ccccc12 (stereo not drawn) | -12%
Cc1cc(C)cc(NC(=O)C2CCCC2)c1 | -2%
O=C(CCCSc1nc2ccccc2[nH]1)NCc1ccco1 | -4%
CSc1ccc(C2C(C#N)=C(N)Oc3c2ccc(=O)c2c(C)oc(C)c32)cc1 (stereo not drawn) | 25µM*
Cc1ccc2c(c1)N(CC(=O)NCc1cccs1)C(=O)CO2 | 2%

Shown in markdown: entries from further up
| Compound | HSD17B inhib |
| --- | --- |
| COc1ccc(C2c3c(oc4ccc(Cl)cc4c3=O)C(=O)N2Cc2ccco2)cc1OC (stereo not drawn) | 11% |
| C=CCn1c(NCc2ccccc2)nc2ccccc21 | 8% |

Going on with the list:
SMILES | HSD17B inhib
O=C(NCCCN1CCCC1=O)C1CCN(S(=O)(=O)N2CCOCC2)CC1 | -4%
Cc1ccc(-c2noc(CSc3nnnn3C3CCCCC3)n2)cc1 | -12%
CCOC(=O)c1ccc(N=Cc2nc3ccccc3n2C)cc1 | 4%
Nc1cccc(C(=O)Nc2ccccc2Cl)c1 | -2%
CCN(CC)CCNC(=O)Cc1c(C(=O)O)n(C)c2ccccc12 | -14%
O=C(COc1ccc(F)cc1)Nc1ccc(-n2cnnn2)cc1 | 2%
CC(=O)N(C)c1ccc(OCC(O)COc2ccc(N(C)C(C)=O)cc2)cc1 | 6%
Cn1c(=O)c2cc(S(=O)(=O)NC(C(=O)Nc3cccnc3)c3ccccc3)ccc2n(C)c1=O (stereo not drawn) | -16%

This is a subset (hit frequency here may not be typical).
